From PubChem
NOMO-1 viab: NOMO-1 AML cell viability reduction, primary screen, STK33 inhibitor project, CellTiter-Glo luminescence; NOMO-1 AML viability, 72 h; inhibition, % (test concentration not listed); hit rate 7.5% among 37,000; AID 2330, 2010;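 active = most replicates above 80%; inconclusive = exactly half above 80%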;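 also: wells of about 30 µL received 25 nL stock; 0% = median of vehicle wells and 100% = reference inhibitor level; the first replicate is given; inactives centre near 10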
Numbers without * were called inactive; ? = inconclusive.

SMILES	NOMO-1 viab
O=C(Oc1ccc(C2SCCS2)cc1)C1CCCCC1	18
COc1ccc(S(=O)(=O)Nc2ccc3c(c2)C(=O)N([C@H](C)CO)C[C@@H](C)[C@H](CN(C)Cc2ccncc2)O3)cc1	-3
CC1=C(C(=O)OCc2ccccc2)C(c2ccoc2)C(C#N)=C(N)S1 (stereo unspecified)	58
O=C(NCc1ccco1)c1cnn2cccnc12	20
O=C1C(=O)N(Cc2ccco2)C(c2ccc(Cl)cc2)C1C(=O)c1cc2ccccc2o1 (stereo unspecified)	5
C[C@@H]1CN([C@@H](C)CO)C(=O)c2cc(NC(=O)Nc3ccc(F)cc3)ccc2O[C@@H]1CN(C)C(=O)Nc1ccc(F)cc1	28
Cc1ccc(S(C)(=O)=O)cc1	5
COC(=O)CNC(=O)c1cc(-c2ccccn2)nc2ccc(Cl)cc12	67
Cc1noc(C)c1NC(=O)N(C)C[C@@H]1Oc2ccc(NC(=O)Nc3ccc(C(F)(F)F)cc3)cc2C(=O)N([C@@H](C)CO)C[C@H]1C	3
Oc1cc2c(cc1O)CN(C(=S)NCCc1ccc(Cl)cc1)CCC2	97*
C[C@@H]1CN([C@H](C)CO)C(=O)Cc2cc(NC(=O)CCCCCC(=O)Nc3ccccc3N)ccc2O[C@H]1CN(C)C(=O)Nc1ccc(F)cc1	12
COc1ccc(NC(=O)Nc2ccc3c(c2)CC(=O)N([C@@H](C)CO)C[C@H](C)[C@@H](CN(C)Cc2ccc(C(F)(F)F)cc2)O3)cc1	51
COc1ccc(CN(C)C[C@H]2Oc3c(NC(=O)Nc4ccc5c(c4)OCO5)cccc3C(=O)N([C@H](C)CO)C[C@H]2C)cc1	-9
CCOc1ccccc1NC(=O)Cn1cnc2ccccc2c1=O	22
CCCC1=NN(C(=O)C(C)(C)C)C(=O)C1Cc1c(F)cccc1Cl (stereo unspecified)	?
Cc1cc(C(=O)Nc2cccc3c2O[C@H](CN(C)Cc2ccccc2)[C@@H](C)CN([C@H](C)CO)C3=O)n(C)n1	14
C[C@H]1CN([C@@H](C)CO)C(=O)c2cccc(NS(=O)(=O)c3ccc(Cl)cc3)c2O[C@H]1CN(C)Cc1ccccc1	19
COc1ccc(CN(C)C[C@@H]2Oc3c(NS(=O)(=O)c4ccccc4)cccc3C(=O)N([C@H](C)CO)C[C@H]2C)cc1	16
COc1ccc(S(=O)(=O)N(C)C[C@H]2Oc3ccc(NC(=O)CCC(F)(F)F)cc3CC(=O)N([C@@H](C)CO)C[C@@H]2C)cc1	1
C[C@H](CO)N1C[C@H](C)[C@@H](CN(C)C(=O)NC2CCCCC2)Oc2ccc(NS(=O)(=O)c3cccs3)cc2C1=O	16
CC(C)(C)c1ccc(CSCC(=O)Nc2ccccc2C#N)cc1	36
C[C@H](CO)N1C[C@H](C)[C@@H](CN(C)C(=O)NC2CCCCC2)Oc2ccc(NS(=O)(=O)c3cn(C)cn3)cc2C1=O	-11
C[C@H]1CN([C@@H](C)CO)C(=O)c2cc(NC(=O)Cc3cn(C)c4ccccc34)ccc2O[C@@H]1CN(C)S(=O)(=O)c1ccccc1	18
Cc1noc(C)c1NC(=O)Nc1ccc2c(c1)CC(=O)N([C@H](C)CO)C[C@H](C)[C@H](CN(C)C(=O)NC1CCCCC1)O2	38
C[C@@H]1CN([C@@H](C)CO)C(=O)Cc2cc(NC(=O)c3ccncc3)ccc2O[C@@H]1CN(C)C(=O)NC1CCCCC1	15

2 entries drawn at random from those above, as already listed:
SMILES	NOMO-1 viab
CCCC1=NN(C(=O)C(C)(C)C)C(=O)C1Cc1c(F)cccc1Cl (stereo unspecified)	?
C[C@@H]1CN([C@@H](C)CO)C(=O)c2cc(NC(=O)Nc3ccc(F)cc3)ccc2O[C@@H]1CN(C)C(=O)Nc1ccc(F)cc1	28

Further structures follow:
SMILES	NOMO-1 viab
COC(=O)C1=C(C)Nc2nnnn2C1c1ccco1 (stereo unspecified)	0
CCn1c(SCC(=O)Nc2cccc(C)c2C)nnc1-c1ccc(Cl)c(Cl)c1	-11
O=C1c2cccc3cccc(c23)C(=O)N1CCCSc1nnnn1-c1ccccc1	6
COc1ccc(S(=O)(=O)Nc2ccc3c(c2)CC(=O)N([C@@H](C)CO)C[C@H](C)[C@@H](CN(C)Cc2ccc(C(=O)Nc4ccccc4N)cc2)O3)cc1	45
Cc1c(Cl)cccc1NC(=O)CN(c1ccccc1Br)S(C)(=O)=O	27
Cc1nonc1OCCNc1ccc(C(F)(F)F)cc1[N+](=O)[O-]	4
COc1ccc(NC(=O)CSc2nnc(-c3ccccc3)c(-c3ccccc3)n2)cc1	-19
CNC[C@@H]1Oc2c(NS(=O)(=O)c3c(C)noc3C)cccc2C(=O)N([C@H](C)CO)C[C@@H]1C	27
COc1ccc(NC(=O)N(C)C[C@H]2Oc3ccc(N(C)C)cc3CC(=O)N([C@@H](C)CO)C[C@@H]2C)cc1	15
CC(=O)/C=C/C1(O)C(C)CCC2C(C)(C)CCCC21C (stereo unspecified)	38
C[C@@H]1CCCCO[C@@H](CN(C)C(=O)c2ccccc2)[C@@H](C)CN([C@H](C)CO)C(=O)c2cc(NC(=O)Nc3cccc4ccccc34)ccc2O1	54
Cc1ccc(C(C)C)c(OCC(=O)Nc2ccc(C)cc2[N+](=O)[O-])c1	31
CSC1=N/C(=C\c2ccccc2C)C(=O)S1	56
Cc1onc(-c2c(F)cccc2Cl)c1C(=O)NCCc1ccc(S(N)(=O)=O)cc1	-9
CC(=O)/C(=C\c1ccccc1)CC(=O)O	24
O=C1CSc2nnc(-c3ccccc3)n21	41
C[C@H](CO)N1C[C@H](C)[C@@H](CN(C)S(C)(=O)=O)Oc2ccc(NC(=O)CCCN(C)C)cc2C1=O	-1
C[C@@H]1CN([C@H](C)CO)C(=O)c2cccc(NC(=O)NC3CCCCC3)c2O[C@H]1CN(C)C(=O)NC1CCCCC1	15
COC(=O)C1=C(C)NC(=O)C1(Nc1ccc(Cl)cn1)C(F)(F)F (stereo unspecified)	-16
Cc1noc(C)c1NC(=O)Nc1ccc2c(c1)C(=O)N([C@H](C)CO)C[C@@H](C)[C@@H](CN(C)Cc1ccc(C(=O)Nc3ccccc3N)cc1)O2	35
C[C@H]1CN([C@@H](C)CO)C(=O)Cc2cc(NC(=O)c3ccncc3)ccc2O[C@@H]1CN(C)Cc1ccncc1	1
O=C(Oc1ccc(-c2ccccc2)cc1)C(Cc1ccccc1)N1C(=O)C2C3CCC(C3)C2C1=O (stereo unspecified)	13
COc1ccc(S(=O)(=O)N(C)C[C@H]2OCCCC[C@@H](C)Oc3ccc(NS(=O)(=O)c4c(C)noc4C)cc3C(=O)N([C@H](C)CO)C[C@@H]2C)cc1	33
C[n+]1c(-c2ccccc2)csc1NC1CCCCC1	-24
Cc1noc(C)c1S(=O)(=O)Nc1ccc2c(c1)CC(=O)N([C@@H](C)CO)C[C@H](C)[C@@H](CN(C)C(=O)Nc1ccc(F)cc1)O2	16
Later entries:
SMILES	NOMO-1 viab
COc1ccc(NC(=O)N(C)C[C@H]2Oc3c(NS(C)(=O)=O)cccc3C(=O)N([C@H](C)CO)C[C@H]2C)cc1	6
COc1ccc(NC(=O)N(C)C[C@H]2Oc3c(NC(=O)c4cnccn4)cccc3C(=O)N([C@H](C)CO)C[C@@H]2C)cc1	14
COC(=O)c1ccccc1NC(=O)c1ccc(NC(=O)C(C)Oc2ccc(Cl)cc2C)cc1 (stereo unspecified)	9
C[C@@H]1CN([C@@H](C)CO)C(=O)c2cc(NC(=O)Nc3ccc4c(c3)OCO4)ccc2O[C@H]1CN(C)Cc1ccc2c(c1)OCO2	-17
O=c1c2c(nc3cc(-c4ccco4)[nH]n13)CSC2	12
C[C@@H]1CN([C@@H](C)CO)C(=O)c2cc(NC(=O)Nc3ccccc3)ccc2O[C@@H]1CN(C)S(=O)(=O)c1ccc(Cl)cc1	7
C[C@@H]1CN([C@H](C)CO)C(=O)c2cc(NS(=O)(=O)c3ccccc3)ccc2O[C@H]1CN(C)Cc1ccc(Oc2ccccc2)cc1	73
CN(Cc1nc(-c2cccc([N+](=O)[O-])c2)no1)S(=O)(=O)c1ccc(Br)cc1	11
C[C@@H]1CN([C@H](C)CO)C(=O)c2cc(NC(=O)Cn3cnnn3)ccc2O[C@@H]1CN(C)C(=O)Nc1ccc(F)cc1	-2
Cc1ccc(-n2c(SCC(=O)NC3CCCCC3)nnc2-c2ccccc2)cc1	15
Cc1ccc(NC(=O)C2CC(=O)n3cnnc3N2)cc1 (stereo unspecified)	5
C[C@H]1CN([C@@H](C)CO)C(=O)c2cc(NS(=O)(=O)c3cn(C)cn3)ccc2O[C@H]1CN(C)C(=O)Nc1ccc(F)cc1	-9
COc1ccc(NC(=O)Nc2ccc3c(c2)CC(=O)N([C@H](C)CO)C[C@@H](C)[C@H](CN(C)S(=O)(=O)c2ccc(Cl)cc2)O3)cc1	-3
C[C@@H]1CN([C@H](C)CO)C(=O)Cc2cc(NC(=O)Nc3cccc4ccccc34)ccc2O[C@H]1CN(C)C(=O)Nc1ccc(F)cc1	9
C[C@@H]1CCCCO[C@@H](CN(C)C(=O)CCCN(C)C)[C@@H](C)CN([C@H](C)CO)C(=O)c2cc(NC(=O)NC3CCCCC3)ccc2O1	-7
COc1ccc(CN(C)C[C@H]2Oc3c(NC(=O)NC4CCCCC4)cccc3C(=O)N([C@@H](C)CO)C[C@H]2C)cc1	-5
COc1ccc([N+](=O)[O-])cc1NC(=O)CN(C)S(=O)(=O)c1ccc(Cl)cc1	2
Cc1ccc(OCC(=O)Nc2ncccn2)c(C)c1	11
CC(C)N(C(=O)Cn1c2ccccc2c2nc3ccccc3nc21)c1ccccc1	8
C[C@H]1CN([C@@H](C)CO)C(=O)c2cccc(NC(=O)c3ccc(-c4nccs4)cc3)c2O[C@H]1CN(C)C(=O)Nc1ccc(F)cc1	-17
Cc1ccc(S(=O)(=O)Nc2ccc3c(c2)CC(=O)N([C@H](C)CO)C[C@H](C)[C@H](CN(C)Cc2ccccc2)O3)cc1	98*
CCc1nc2sc3c(c2c2nnc(SCC(=O)OC)n12)CCC3	27
COc1cccc(NC(=O)CCN2C(=O)c3ccccc3S2(=O)=O)c1	17
Cc1cc(NC(=O)c2ccc(N)cc2)c(N)cc1N	30
CNC[C@H]1Oc2ccc(NC(=O)CCC(F)(F)F)cc2C(=O)N([C@H](C)CO)C[C@@H]1C	23
Later entries
SMILES	NOMO-1 viab
COc1ccc(NC(=O)N(C)C[C@@H]2OCCCC[C@@H](C)Oc3ccc(NC(=O)c4ccncc4)cc3C(=O)N([C@H](C)CO)C[C@@H]2C)cc1	8
COc1ccc(S(=O)(=O)N(C)CC(=O)Nc2ccccc2F)cc1Cl	-13
C[C@@H]1CN([C@H](C)CO)C(=O)c2cccc(NC(=O)c3nc4ccccc4s3)c2O[C@@H]1CN(C)C(=O)NC1CCCCC1	20
C[C@H](CO)N1C[C@H](C)[C@H](CN(C)C(=O)Nc2ccc(F)cc2)Oc2c(NS(=O)(=O)c3ccc(Cl)cc3)cccc2C1=O	78
O=C(O)c1c(Br)c(Br)c(Br)c(Br)c1-c1c2ccc(=O)cc-2oc2cc(O)ccc12	21
COc1ccc(-n2c(SCC(=O)Nc3cc(NC(C)=O)ccc3OC)nc3ccccc3c2=O)cc1	13
CC(C)CSc1nnc(CSCc2nc(-c3ccc(Cl)cc3)cs2)n1C	70
COc1ccc(NC(=O)N(C)C[C@@H]2Oc3ccc(NC(=O)c4ccncc4)cc3CC(=O)N([C@@H](C)CO)C[C@@H]2C)cc1	-4
COc1ccc(NC(=O)Nc2ccc3c(c2)CC(=O)N([C@H](C)CO)C[C@@H](C)[C@H](CN(C)S(=O)(=O)c2ccccc2)O3)cc1	12
COc1ccc(CN(C)C[C@H]2Oc3ccc(NC(=O)Cc4ccccc4)cc3CC(=O)N([C@@H](C)CO)C[C@@H]2C)cc1	23
COc1cc([C@H]2OC[C@](O)(Cc3ccc(O[C@@H]4O[C@H](CO)[C@@H](O)[C@H](O)[C@H]4O)c(OC)c3)[C@@H]2CO)ccc1O	9
C[C@@H]1CN([C@H](C)CO)C(=O)Cc2cc(NC(=O)Cc3cn(C)c4ccccc34)ccc2O[C@@H]1CN(C)S(=O)(=O)c1cccs1	4
COC(=O)c1ccc(NC(=O)CSc2nc(-c3ccccc3)c(-c3ccccc3)[nH]2)cc1	102*
CC(C)NC(=O)Nc1cccc2c1O[C@H](CN(C)S(C)(=O)=O)[C@H](C)CN([C@@H](C)CO)C2=O	-9
C[C@H]1CN([C@@H](C)CO)C(=O)c2cc(NC(=O)Nc3ccc4c(c3)OCO4)ccc2O[C@H]1CN(C)Cc1ccc(Oc2ccccc2)cc1	37

Another view of some results above.
COc1ccc(NC(=O)N(C)C[C@@H]2Oc3ccc(NC(=O)c4ccncc4)cc3CC(=O)N([C@@H](C)CO)C[C@@H]2C)cc1
  NOMO-1 viab: -4

COC(=O)c1ccc(NC(=O)CSc2nc(-c3ccccc3)c(-c3ccccc3)[nH]2)cc1
  NOMO-1 viab: 102*

COc1ccc(S(=O)(=O)N(C)CC(=O)Nc2ccccc2F)cc1Cl
  NOMO-1 viab: -13

COc1ccc(CN(C)C[C@H]2Oc3ccc(NC(=O)Cc4ccccc4)cc3CC(=O)N([C@@H](C)CO)C[C@@H]2C)cc1
  NOMO-1 viab: 23

Not all compounds are listed; count on the stated rates, not on these rows.
